HNF4A DNA FP: change in binding of human HNF4 alpha to DNA; P41235; HNF4a-FITC DNA binding, fluorescence polarization, 1 h; activity change, % at 10 µM; 360,000 tested, 0.3% active; in the data active = activity change above about 30%, passing the limit was not always enough;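 note: controls were the assay level and a saturating level of protein; the project sought stronger binding though the title names inhibitors; some compounds called inactive have numbers as strong as hits; positive values seem to mean higher polarization but the record does not say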
UCH37 DUB inh: blocks the human deubiquitinase UCH37; purified proteasome/UCH37, Ub-AMC cleavage fluorescence; inhibition, % (concentration not given with the values); 330,000 tested, 0.33% active; AID 588478;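 active = mean of two replicates above 20%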;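 note: 0% = compound-free wells with enzyme and 100% = wells lacking proteasome; stock transfer was 100 nL into about 20 µL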
Target sequence (Q9Y5K5 whole entry, looked up): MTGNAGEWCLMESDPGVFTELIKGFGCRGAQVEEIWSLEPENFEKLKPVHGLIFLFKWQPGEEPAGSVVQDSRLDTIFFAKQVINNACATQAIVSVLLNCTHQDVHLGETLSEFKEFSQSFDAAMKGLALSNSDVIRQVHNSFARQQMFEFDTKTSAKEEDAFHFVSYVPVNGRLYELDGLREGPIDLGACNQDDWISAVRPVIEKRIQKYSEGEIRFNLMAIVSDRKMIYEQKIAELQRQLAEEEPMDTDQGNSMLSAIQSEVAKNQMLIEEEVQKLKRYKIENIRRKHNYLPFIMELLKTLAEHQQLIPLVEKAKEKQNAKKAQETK
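Signal – fluorescence, ex 355 nm, em 460 nm · System – Proteasome-bound UCH37 · Input – 0.15 nM proteasome as dispensed · Timing – 30 min preincubation with enzyme, 25 min cleavage at room temperature · Read-out basis – percent inhibition of cleavage signal versus uninhibited and no-proteasome wells · Medium – Tris-HCl pH 7.4 with ATP-MgCl2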
Ecoli growth: inhibitors of Escherichia coli growth; OD600 absorbance (no concentration beside the values); 330,000 tested, 0.21% active; OD600, 23 h; active compounds read low; AID 1053175;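 active = OD600 absorbance below the run mean of sample wells minus 3.6 SD, in any replicate, cut at about 0.56 in these data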;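 note: stock transfer was 300 nL into about 60 µL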
B2AR ag: agonists of human beta-2 adrenergic receptor inducing internalization. Am2.2-beta2AR cells, FAP receptor internalization, flow cytometry; reference of the scale not given here. response, % (test concentration not listed). 340,000 tested, 0.43% active. AID 504454;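 active = response above a set limit, near 3 SD of response in nonfluorescent compounds, cut at about 42% in these data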;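 note: stock transfer was 100 nL into about 11 µL; a reference agonist was the positive control; negative values mostly stem from fluorescent compounds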
Target sequence (P07550 whole entry, looked up): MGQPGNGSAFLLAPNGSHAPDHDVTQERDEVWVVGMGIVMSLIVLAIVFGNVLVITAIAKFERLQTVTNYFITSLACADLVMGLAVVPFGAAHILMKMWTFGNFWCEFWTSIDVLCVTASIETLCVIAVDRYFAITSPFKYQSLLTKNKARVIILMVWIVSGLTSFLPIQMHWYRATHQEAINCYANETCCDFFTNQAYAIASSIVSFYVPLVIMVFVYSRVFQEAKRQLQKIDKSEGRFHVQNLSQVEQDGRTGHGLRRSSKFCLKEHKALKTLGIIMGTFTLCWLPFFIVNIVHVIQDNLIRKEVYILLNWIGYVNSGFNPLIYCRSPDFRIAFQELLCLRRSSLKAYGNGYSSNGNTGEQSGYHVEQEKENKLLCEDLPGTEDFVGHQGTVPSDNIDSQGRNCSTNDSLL
FGF22 binding: binders of recombinant human FGF22 by thermal shift. Q9HCT0. SYPRO orange fluorescence; percent of sucrose octasulfate shift, DMSO zero. calls only at 9.99 µM. 340,000 tested, 1.5% active. AID 651658;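 active = melting point raised past a set limit in the mean and every replicate; three in four hits are not shown here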
Target sequence (Q9HCT0 whole entry, looked up): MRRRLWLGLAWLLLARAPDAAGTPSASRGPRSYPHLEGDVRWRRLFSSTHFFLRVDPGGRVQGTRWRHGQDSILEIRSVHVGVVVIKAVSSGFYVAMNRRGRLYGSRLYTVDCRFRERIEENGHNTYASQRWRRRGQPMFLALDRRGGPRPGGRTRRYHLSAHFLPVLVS
LANA-H2B inh: blocks KSHV LANA binding to histone H2A/H2B; inhibition, % (no concentration beside the values); AID 2629; Q9QR71; 320,000 tested, 0.6% active; cell-free LANA-H2A/H2B peptide, fluorescence polarization; in the data active = inhibition mostly above about 10%, no sharp cut-off; inactive = mostly below about 6.7%;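 note: stock transfer was 7.5 nL into about 10 µL; 0% = median of vehicle wells and 100% = median of positive control wells; one replicate is shown; the record names a cut of 25% in any replicate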
ALR H2O2 inh: blocks human ALR sulfhydryl oxidase activity. purified ALR, DTT oxidation, H2O2 HRP-luminol luminescence. 290,000 tested, 3.8% active. AID 485317. inhibition, % (no concentration beside the values);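 active = mean and each replicate at 75% or more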;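 note: stock transfer was 7.5 nL into about 7.5 µL; 0% = neutral wells and 100% = wells with inactivated enzyme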
An asterisk follows results filed as active; i = inactive; / = not tested or not shown. This is a subset (hit frequency here may not be typical).

SMILES	HNF4A DNA FP	UCH37 DUB inh	Ecoli growth	B2AR ag	FGF22 binding	LANA-H2B inh	ALR H2O2 inh
CCN(CC)S(=O)(=O)c1ccc(N2CCN(S(=O)(=O)c3ccc4c(c3)OCCO4)CC2)nc1	0.2	0.7	0.72	9	/	5.3	-2
O=C(NC(=S)Nc1ccc(S(=O)(=O)N2CCCCC2)cc1)c1ccccc1	0.3	5.3	0.68	1	/	2.1	-1
CC(C)(C)c1[nH]nc2c1C(C1C=CCCC1)C(C#N)=C(N)O2 (stereo unspecified)	-3.7	5.0	0.69	-7	/	-0.4	-11
NC(=O)C1CCCN(C(=O)CCC(=O)c2cccs2)C1 (stereo unspecified)	3.4	-1.3	0.64	1	i	3.5	-3
CC(C)(C)c1ccc(S(=O)(=O)N2CCN(C(=O)C3CCC3)CC2)cc1	-1.5	3.0	0.72	-9	i	2.7	-10
CC(=O)Nc1ccc(Oc2cc(N)cc([N+](=O)[O-])c2)cc1	-1.1	2.2	0.69	11	i	5.7	-4
CCCNC(=O)c1ccc2c(=O)c(O)c(-c3ccsc3)[nH]c2c1	-0.9	-15	/	-10	/	6.5	34
Cc1cccc(C)c1NC(=O)COC(=O)c1cc[n+]([O-])cc1	4.7	1.9	0.7	6	i	-1.7	-1
COc1ccc(OC)c(S(=O)(=O)Nc2c(C)nn(C)c2C)c1	-0.9	2.7	0.67	0	i	2.7	-1
COc1ccc(CNC(=O)C2CCC(CNC(=O)[C@@H]3Cc4ccccc4CN3)CC2)cc1 (stereo partly specified)	4.1	1.9	0.6	9	i	-0.6	-4
C=CCN1CC(c2nc3ccccc3n2Cc2cccc3ccccc23)CC1=O (stereo unspecified)	1.3	-0.5	0.68	3	/	0.8	-1
CCOc1ccc(-n2cnc3c(=O)[nH]c(N)nc32)cc1	0.5	4.3	0.7	-4	i	2.0	9
O=C(C1CCN(S(=O)(=O)c2ccc(Br)s2)CC1)N1CCN(C2CCCCC2)CC1	1.1	-0.3	0.67	4	i	-2.1	-27
COc1ccc(N2C(=O)C(O)C2c2ccc(C)cc2)cc1 (stereo unspecified)	-2.7	4.6	0.68	-3	i	-1.8	-3
O=C(NNC(=O)c1csc(-c2cccnc2)n1)Nc1ccc(Cl)cc1	-1.1	3.0	0.61	-2	i	-4.6	2
Cc1ccc(S(=O)(=O)N2CCCC2)cc1S(=O)(=O)N1CCCC1	0.2	2.5	0.73	-7	/	0.7	-6
CC1=C(C(=O)Nc2cc(C)ccc2C)C(c2cccs2)NC(=S)N1 (stereo unspecified)	3.6	-1.3	0.74	-8	/	0.7	-1
O=C(CCn1nc(-c2ccccc2)ccc1=O)NCCCN1CCCCCC1	7.2	3.1	0.66	-13	i	-2.8	-1
CCOC(=O)c1cccc(NC(=O)CS(=O)(=O)Cc2nc(-c3cccc(OC)c3)oc2C)c1	-0.5	1.5	0.71	4	/	-5.6	-6
Cc1ccc(C)c(-n2cc(CN3CCN(C(=O)c4ncn[nH]4)CC3)c(-c3ccccc3)n2)c1	2.7	2.7	0.71	-17	i	2.5	-8
CN(C)C(CNc1ncnc2sccc12)c1ccccc1 (stereo unspecified)	-1.5	-2.0	0.69	3	i	-7.9	-10
CCOC(=O)c1ccc(NCc2cccnc2)cc1	0.5	4.1	0.69	-5	i	-3.1	-4
CCCC[C@@]1(C2CCCC2)Cc2cc(OCC(=O)O)c(Cl)c(Cl)c2C1=O	2.9	5.8	0.7	2	i	1.6	25
Cc1ccccc1NC1=NC(=S)N(CC(N)=O)C12CCOC(C)(C)C2 (stereo unspecified)	-0.1	5.6	0.66	5	i	-2.1	5
Cc1nn(Cc2ccc(F)cc2)c(C)c1NC(=O)c1noc2c1CCCCC2	-3.0	1.7	0.67	-12	/	3.2	3

The closing 3 records of the part before lead into the next.
SMILES	HNF4A DNA FP	UCH37 DUB inh	Ecoli growth	B2AR ag	FGF22 binding	LANA-H2B inh	ALR H2O2 inh
CCCC[C@@]1(C2CCCC2)Cc2cc(OCC(=O)O)c(Cl)c(Cl)c2C1=O	2.9	5.8	0.7	2	i	1.6	25
Cc1ccccc1NC1=NC(=S)N(CC(N)=O)C12CCOC(C)(C)C2 (stereo unspecified)	-0.1	5.6	0.66	5	i	-2.1	5
Cc1nn(Cc2ccc(F)cc2)c(C)c1NC(=O)c1noc2c1CCCCC2	-3.0	1.7	0.67	-12	/	3.2	3
Cn1c(N)c(C(=O)CSc2nnc(C3CC3)n2N)c(=O)n(C)c1=O	1.1	4.9	0.66	-16	i	-1.7	3
COc1ccc(OCCC(=O)OCC(=O)NC(=O)NC2CCCCC2)cc1	2.0	2.5	0.69	-1	i	5.8	14
O=C1CCCCCN1Cc1ccccc1	-1.1	3.1	0.74	9	/	-28	/
CC(C)NC(=O)C1(c2ccccc2)CC1(Cl)Cl (stereo unspecified)	0.5	5.3	0.7	1	/	-6.1	-3
COc1ccc(CN(C)CC(=O)Nc2cccc(S(N)(=O)=O)c2)c(OC)c1OC	0.4	2.9	0.66	-4	i	0.7	-2
O=S(=O)(c1ccc(Cl)cc1)N1CCN(CCc2ccncc2)CC1	-1.6	3.2	0.68	-10	i	-0.7	5
CN(Cc1ccccc1F)C(=O)COc1ccc(C(=O)c2ccccc2)cc1	-0.7	2.2	0.69	-1	i	4.1	-21
CCc1ccc(-c2cc(C)no2)cc1S(=O)(=O)N1CCN(c2ccc(C(C)=O)cc2)CC1	-2.3	-6.0	0.7	0	i	6.0	4
Cc1ccc(NC(=O)C(=O)NCCCN2CC(C(=O)O)CC2=O)cc1 (stereo unspecified)	0.5	3.8	0.69	2	i	0.8	0
C/C(=N\N=C1\NC(=O)CC(C(=O)O)S1)c1ccc(F)cc1 (stereo unspecified)	5.2	/	/	-3	i	-4.5	/
O=S(=O)(NCc1cccnc1)c1ccc2ccccc2c1	2.1	0.4	0.68	1	i	-6.4	/
Cn1c(=O)cc(SCC(=O)Nc2ccccn2)c2ccccc21	/	3.4	0.67	/	/	4.1	-8
Cc1c(CC(=O)N2CCN(C(=O)C3COc4ccccc4O3)CC2)c(=O)oc2c(C)c(O)ccc12 (stereo unspecified)	-3.5	/	/	1	i	-3.9	44
COc1ccc(N2CCN(CC(=O)Nc3ccccc3C(=O)NCc3ccccc3)CC2)cc1	-1.6	-0.2	0.64	28	i	/	/
FC(F)(F)c1ccc(Cl)c(-n2c(-c3ccco3)n[nH]c2=S)c1	2.9	0.4	0.68	4	i	1.2	-15
CCOc1ccc(NC(=O)OCCN2CCN(CCc3ccccc3)C(C)C2)cc1 (stereo unspecified)	2.5	0.3	0.62	-6	i	/	/
CCCC(=O)c1ccc(N2CCN(C(=O)c3ccccc3)CC2)c(F)c1	1.2	2.0	0.76	-12	/	-0.6	-3
CC(=C1C(=O)c2ccccc2C1=O)N1CCN(c2ccccn2)CC1	0.7	10	0.73	-8	/	-6.3	-11
COc1ccc(Cc2nnc(Nc3ccc(Cl)cc3)[nH]c2=O)cc1	-0.1	3.9	0.68	-1	i	0.9	-7
COc1ccc(C(=O)CNc2ccc3ccccc3c2)cc1	-4.7	-1.4	0.69	1	i	/	/
Cc1ccc(S(C)(=O)=N/C=C2\C(=O)c3sccc3N(C)S2(=O)=O)cc1 (stereo unspecified)	-2.5	-16	0.64	0	i	4.4	3
CN(C)S(=O)(=O)c1ccc(C(=O)N2CCN(S(=O)(=O)c3cccs3)CC2)cc1	0.4	5.1	0.69	-7	i	0.4	-4
CC(=O)N(CC(=O)Nc1nn(-c2ccccc2)nc1C(N)=O)Cc1ccccc1	-4.4	-11	0.73	-1	/	-7.3	-1
Nc1nonc1C(=O)NCCNCc1cc(Br)ccc1OCc1ccccc1F	-1.8	2.4	0.65	-3	/	-4.6	-8
CCOC(=O)CSc1snnc1-c1ccccc1	0.0	3.1	0.7	1	/	3.8	/
The results go on.
SMILES	HNF4A DNA FP	UCH37 DUB inh	Ecoli growth	B2AR ag	FGF22 binding	LANA-H2B inh	ALR H2O2 inh
CN(C)C(CNC(=O)c1cc(-c2ccco2)nc2ccccc12)c1ccccc1 (stereo unspecified)	-46	-471	0.67	-6	i	-2.8	/
CC(=O)Nc1nc(C)c(-c2csc(Nc3ccc(O)cc3)n2)s1	2.4	-20	0.7	18	/	-6.1	99*
O=C(Cc1ccccc1)NNS(=O)(=O)c1ccc([N+](=O)[O-])cc1	-1.2	2.3	0.7	4	i	6.8	/
Cc1ccc(SCC(=O)Nc2ccccc2N2CCOCC2)cc1	2.7	1.2	0.73	-8	i	-0.7	-2
C=CCN1C(=O)c2ccc(C(=O)N(CCC)CC(=O)Nc3ccccc3C)cc2C1=O	2.2	-1.5	0.64	2	i	0.4	0
COc1cc(-c2nnc(SCc3cccnc3)n2C)cc(OC)c1O	-0.1	2.0	0.7	-1	i	-0.5	44
C[C@@]12C(=O)N(Cc3ccc(F)cc3)CC(=O)N1[C@H]1c3cc(Cl)ccc3OC[C@@H]1[C@@H]2c1ccccc1	1.6	1.8	/	4	i	2.8	5
Cc1cccc(C)c1OCC(O)CN(Cc1ccccc1O)C1CCCCC1 (stereo unspecified)	-1.4	1.4	0.7	3	/	-2.9	13
CC(=O)Nc1ccc(NC(=O)c2ccc(NS(=O)(=O)c3cc(C(C)(C)C)ccc3C)cc2)cc1	0.9	-24	0.72	-2	i	-2.6	-1
Cc1cc(C)cc(OCC(=O)OC(C)C(=O)Nc2ccc(Cl)cn2)c1 (stereo unspecified)	-2.2	1.3	0.69	-11	/	-0.2	-1
CC(OC(=O)CCc1nc2ccccc2c(=O)[nH]1)C(=O)c1ccc(Br)cc1 (stereo unspecified)	4.4	-4.3	0.7	0	i	0.0	3
Cc1nc(NC(=O)c2c(-c3ccccc3)noc2C)sc1C(=O)N(C)C	3.6	-0.1	0.72	-5	i	-3.2	-4
O=c1[nH]c(CN2CCN(S(=O)(=O)/C=C/c3ccccc3)CC2)nc2ccccc12	3.8	4.1	0.68	8	/	4.0	-1
COc1ccc2[nH]c(=O)c(CN(C(=O)NC3CCCCC3)C3CCCC3)cc2c1	3.4	-57	0.72	2	/	2.9	48
CCCc1nc(SCC(=O)c2ccc(F)cc2)c2ccccc2n1	1.1	/	/	-5	i	0.2	99*
CCc1ccccc1OCC(=O)Nc1cccc(S(=O)(=O)NCc2ccco2)c1	1.0	0.7	0.66	4	i	-6.8	-6
COc1cc(C=O)ccc1OCc1cccc(Br)c1	1.4	4.5	0.69	-10	/	-0.6	1
CCN1CCN(c2sc(S(C)(=O)=O)nc2S(=O)(=O)c2ccc(C)cc2)CC1	2.9	5.9	0.71	6	i	1.4	-1
Cc1ccccc1NC(=O)CSc1nc(COc2ccccc2)nc2ccccc12	-1.4	2.8	0.7	-6	/	-2.6	-2
Cc1cccc2c(C(=O)O)cc(-c3cccnc3)nc12	3.0	-2.7	0.72	0	i	5.3	0
CC(C)CCNC(=O)COc1ccc(N(C)S(=O)(=O)c2ccc(F)cc2)cc1	1.8	1.0	0.67	-6	i	3.5	-5
CN(Cc1ccccc1NC(=O)c1ccc(S(=O)(=O)N(C)C)cc1)C1CCCCC1	/	4.8	0.67	/	/	-0.1	7
CCOC(=O)c1cccc(NC(=O)CSc2nnc(-c3ccoc3C)n2CCOC)c1	1.9	1.0	0.72	7	/	0.9	-5
CC(=O)Cc1nsc(NC(=O)c2ccc(COc3ccc(C)cc3)o2)n1	2.9	3.4	0.69	-9	/	1.8	14
Cc1ccc(/C(O)=C2/C(=O)C(=O)N(CCN3CCOCC3)C2c2cccs2)cc1 (stereo unspecified)	-1.1	24*	0.64	9	i	-1.0	17

Taken from above:
For ALR H2O2 inh, FC(F)(F)c1ccc(Cl)c(-n2c(-c3ccco3)n[nH]c2=S)c1 reads -15
For ALR H2O2 inh, Cc1c(CC(=O)N2CCN(C(=O)C3COc4ccccc4O3)CC2)c(=O)oc2c(C)c(O)ccc12 (stereo unspecified) reads 44
For ALR H2O2 inh, Cc1ccc(C)c(-n2cc(CN3CCN(C(=O)c4ncn[nH]4)CC3)c(-c3ccccc3)n2)c1 reads -8
For Ecoli growth, C=CCN1C(=O)c2ccc(C(=O)N(CCC)CC(=O)Nc3ccccc3C)cc2C1=O reads 0.64

2 compounds from above with just LANA-H2B inh:
compound | LANA-H2B inh
COc1cc(C=O)ccc1OCc1cccc(Br)c1 | -0.6
CC(=O)Nc1nc(C)c(-c2csc(Nc3ccc(O)cc3)n2)s1 | -6.1
